Ecoli rRNA inh: selective bacterial rRNA inhibition in E. coli; E. coli WT GFP vs humanized-ribosome RFP mutants, fluorescence, 24 h; stronger effect = lower value; DMSO median 0, no signal -100; GFP signal change (wild-type ribosome), % (concentration not given with the values); 1.6% of 350,000 active; AID 720706;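 active = significant combined selectivity score with lowered wild-type GFP, culture density cut under 30%, mutant RFP and density less affected; inactive = any of these conditions unmet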; note: one replicate is shown; some compounds called inactive have numbers as strong as hits
E coli growth: blocks Escherichia coli growth; OD600, 23 h; stronger effect = lower value; OD600 absorbance (test concentration not listed); 0.21% of 330,000 active;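 active = OD600 absorbance below the run mean of sample wells minus 3.6 SD, in any replicate, cut at about 0.56 in these data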;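 note: stock transfer was 300 nL into about 60 µL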
Beta2AR agonist: agonists of human beta-2 adrenergic receptor inducing internalization. Am2.2-beta2AR cells, FAP receptor internalization, flow cytometry; reference of the scale not given here. response, % (no concentration beside the values). 0.43% of 340,000 active;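 active = response above a set limit, near 3 SD of response in nonfluorescent compounds, cut at about 42% in these data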;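 note: stock transfer was 100 nL into about 11 µL; a reference agonist was the positive control; negative values mostly stem from fluorescent compounds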
Target sequence (P07550 whole entry, looked up): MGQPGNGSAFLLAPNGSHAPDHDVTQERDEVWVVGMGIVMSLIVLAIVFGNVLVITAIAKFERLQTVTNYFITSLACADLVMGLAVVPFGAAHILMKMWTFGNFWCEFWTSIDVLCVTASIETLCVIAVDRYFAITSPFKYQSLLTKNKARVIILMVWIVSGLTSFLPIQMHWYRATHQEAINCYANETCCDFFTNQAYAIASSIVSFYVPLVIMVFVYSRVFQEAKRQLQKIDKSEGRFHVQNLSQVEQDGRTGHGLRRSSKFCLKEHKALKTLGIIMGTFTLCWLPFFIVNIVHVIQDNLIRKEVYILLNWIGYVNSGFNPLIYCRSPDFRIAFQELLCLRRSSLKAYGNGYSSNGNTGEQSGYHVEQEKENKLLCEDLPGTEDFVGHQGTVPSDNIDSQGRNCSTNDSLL
HNF4A DNA FP: change in binding of human HNF4 alpha to DNA; P41235; HNF4a-FITC DNA binding, fluorescence polarization, 1 h; activity change, % at 10 µM; 0.3% of 360,000 active; in the data active = activity change above about 30%, passing the limit was not always enough;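 note: controls were the assay level and a saturating level of protein; the project sought stronger binding though the title names inhibitors; some compounds called inactive have numbers as strong as hits; positive values seem to mean higher polarization but the record does not say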
Target sequence (P41235 whole entry, looked up): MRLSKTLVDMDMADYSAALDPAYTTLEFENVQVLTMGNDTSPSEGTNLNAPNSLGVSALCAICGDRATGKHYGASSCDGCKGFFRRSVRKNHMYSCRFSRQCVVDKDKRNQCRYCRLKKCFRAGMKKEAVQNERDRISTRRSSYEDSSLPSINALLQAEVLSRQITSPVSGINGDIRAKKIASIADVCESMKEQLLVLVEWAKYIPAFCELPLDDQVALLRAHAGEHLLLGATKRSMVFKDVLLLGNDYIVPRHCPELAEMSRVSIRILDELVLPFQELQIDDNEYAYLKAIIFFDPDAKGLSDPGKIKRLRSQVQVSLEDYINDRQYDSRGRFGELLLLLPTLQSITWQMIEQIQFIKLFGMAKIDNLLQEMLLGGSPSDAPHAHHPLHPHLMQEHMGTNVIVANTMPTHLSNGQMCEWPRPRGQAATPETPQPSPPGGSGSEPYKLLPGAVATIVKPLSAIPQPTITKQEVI
FGF22 binding: shifts melting point of recombinant human FGF22 | Q9HCT0 | 1.5% of 340,000 active | AID 651658 | recombinant FGF22 thermal shift, SYPRO orange fluorescence; percent of sucrose octasulfate shift, DMSO zero | calls only at 9.99 µM;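 active = melting point raised past a set limit in the mean and every replicate; three in four hits are not shown here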
Target sequence (Q9HCT0 whole entry, looked up): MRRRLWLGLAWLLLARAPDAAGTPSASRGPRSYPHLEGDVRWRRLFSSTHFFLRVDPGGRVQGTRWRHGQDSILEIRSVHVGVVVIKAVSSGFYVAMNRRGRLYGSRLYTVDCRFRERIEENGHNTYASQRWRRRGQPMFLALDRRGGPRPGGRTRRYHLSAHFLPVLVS
ALR H2O2 inh: human ALR oxidase inhibition via reduced H2O2; P55789; purified ALR, DTT oxidation, H2O2 HRP-luminol luminescence; inhibition, % (concentration not given with the values); 3.8% of 290,000 active; AID 485317;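 active = mean and each replicate at 75% or more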;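 note: stock transfer was 7.5 nL into about 7.5 µL; 0% = neutral wells and 100% = wells with inactivated enzyme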
UCH37 inh: human UCH37 deubiquitinating enzyme inhibition; purified proteasome/UCH37, Ub-AMC cleavage fluorescence; inhibition, % (test concentration not listed); 0.33% of 330,000 active; AID 588478;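 active = mean of two replicates above 20%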;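 note: 0% = compound-free wells with enzyme and 100% = wells lacking proteasome; stock transfer was 100 nL into about 20 µL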
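System: Proteasome-associated human UCH37 deubiquitinase; Input: 0.15 nM proteasome in added enzyme buffer; Also added: Ub-AMC substrate from 1 µM stock; Incubation: 30 min compound-proteasome preincubation then 25 min substrate reaction, room temperature; Detection: fluorescence, ex 355 nm, em 460 nm; Read-out: % inhibition of Ub-AMC cleavage fluorescence; Benchmarks: no-proteasome and no-compound wells.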
Ecoli rRNA inh OD600: recorded beside Ecoli rRNA inh, whose call it bears; OD600 change, %; measured here: OD600 growth;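 optical density of the mix in the first replicate; 0 = DMSO median and -100 = no signal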
Ecoli rRNA inh RFP: recorded beside Ecoli rRNA inh, whose call it bears; RFP signal change, %; measured here: RFP humanized mutant strains;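 first replicate; 0 = DMSO median and -100 = no signal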
* = called active by the depositor; i = inactive; . = no result given. The list is partial; the hit share may differ from the screen's.

SMILES	Ecoli rRNA inh	Ecoli rRNA inh OD600	Ecoli rRNA inh RFP	E coli growth	Beta2AR agonist	HNF4A DNA FP	FGF22 binding	ALR H2O2 inh	UCH37 inh
CCOc1ccc(C(=O)CCC(=O)O)cc1	1	6	1.6	0.72	4	0.3	i	2	6.5
CCOC(=O)c1csc(-c2ccc([N+](=O)[O-])cc2)n1	8	5	0.2	0.73	5	1.0	i	-35	3.1
Cc1ccc(CC(=O)NC2CCCc3ccccc32)cc1C (stereo unspecified)	10	13	1.0	0.67	1	1.9	i	-4	1.3
C/C(=N\Nc1ccc(C)c(Cl)c1)c1ccncc1	-41	-69	-3.9	.	5	3.6	i	.	.
COc1cccc(NC(=O)CN2CCN(C(=O)c3ccco3)CC2)c1	3	3	-2.4	0.7	5	1.5	i	0	2.6
COc1ccc(C=O)cc1OC1C=CCCC1 (stereo unspecified)	9	12	-1.2	0.69	-4	-0.7	i	-5	5.7
Cn1c(=O)c2c(n3cnnc13)-c1ccccc1CC21CCCC1	.	.	.	0.66	-20	-1.6	.	.	-3.8
CC(=O)Nc1ccc2c(c1)ncn2C	.	.	.	0.68	-1	-0.6	.	-5	2.9
O=C1NC(=Nc2ccccc2)S/C1=C\c1ccccc1	8	9	2.1	0.74	2	-0.8	i	-4	2.1
O=C(CO)N/N=C/c1c2ccccc2cc2ccccc12	2	-10	-1.7	.	-4	-6.0	i	-12	.
O=C(C/C=N/OCc1ccc(Cl)cc1Cl)c1ccccc1	.	.	.	.	-4	-1.2	.	5	.
O=C(Nc1cccc(OCC(=O)N2CCOCC2)c1)c1cccc(Cl)c1	3	6	6.4	0.68	18	-0.9	i	1	-0.1
CCN1CCN(C(=O)C2=CC(c3ccc(OC)cc3)=NS(=O)(=O)N2C)CC1	0	7	5.8	0.74	-4	1.9	i	-7	7.8
COc1cc(C(=O)NC(C)CCn2cccn2)ccc1OC1CCN(C(C)=O)CC1 (stereo unspecified)	3	8	-0.5	0.69	-5	0.3	i	-7	-0.9
CCOC(=O)C1CCCN(C2CC(=O)N(c3ccccc3)C2=O)C1 (stereo unspecified)	3	16	-1.1	0.71	8	0.6	i	.	3.9
COc1ccc(CCN2C(=O)NC(NS(=O)(=O)c3ccc(Cl)cc3)(C(F)(F)F)C2=O)cc1OC (stereo unspecified)	-3	-1	0.7	0.73	0	-3.6	i	-6	4.0
CN(c1ccccc1)S(=O)(=O)c1ccc(C(=O)OCC(=O)NCc2cccs2)cc1	-6	-4	-3.3	0.64	1	-3.9	i	-2	0.3
O=C(OCc1cnc(Cl)s1)c1c(F)cccc1F	2	6	3.4	0.69	2	-2.5	i	-2	-1.0
Cc1ccccc1-n1c(C)cc(/C=N/NC(=O)c2ccc(CN3CCOCC3)cc2)c1C	.	.	.	.	9	1.6	.	-11	.
Cc1ccc(-c2cc3ncc(C#N)c(N)n3n2)cc1	24	20	-0.9	0.7	-8	2.9	i	-3	3.2
COc1cccc(CC(=O)Nc2ccc3c(c2)OC2(CCCC2)O3)c1	-2	-34	22	0.69	2	1.5	i	.	3.6
Cc1ccc2nc(N3CCN(S(=O)(=O)c4ccc5c(c4)OCCO5)CC3)c(C#N)cc2c1	.	.	.	0.69	9	8.3	.	-28	-22
COc1ccc(C2NC(=O)Cc3cc(OC)c(OC)cc32)cc1OC (stereo unspecified)	7	4	-1.2	0.72	13	-5.5	i	-22	3.4
N#Cc1cccc(NC(=O)c2cc(C3CCCCN3C(=O)CCc3ccccc3)on2)c1 (stereo unspecified)	1	-20	8.5	.	.	4.0	i	.	.
Cc1onc(-c2c(Cl)cccc2Cl)c1C(=O)N(C)Cc1ccccc1	-27	-32	-2.2	0.72	5	1.4	i	-14	2.0
COc1cc(OC)cc(C(=O)N[C@H](C(=O)Nc2ccc3c(c2)OCO3)C(C)C)c1	-8	-5	3.0	0.7	0	-2.1	i	-23	1.9
O=C(Oc1ccc(Br)cc1C(=S)N1CCCC1)c1ccccc1F	.	.	.	0.67	-7	1.3	.	2	0.3
COc1ccccc1N1CCN(C(=O)C(=O)c2cn(CC(=O)N3CCCCCC3)c3ccccc23)CC1	-5	-14	13	0.72	14	4.2	i	-10	4.0
COc1ccc(C(=O)O)cc1NC(=S)NC(=O)Cc1ccc(Cl)cc1	-23	-25	-18	0.67	17	-0.5	i	-4	1.2
COc1ccc2c(c1)/C(=C\c1cccc(/C=C3/C(=O)Nc4ccc(OC)cc43)n1)C(=O)N2	28	22	6.7	.	93*	-4.7	i	.	.
C=CCN(CC=C)C(=O)COC(=O)c1ccc(Sc2ncn[nH]2)c([N+](=O)[O-])c1	4	1	0.0	0.74	1	-3.8	i	.	4.1
COc1cccc(C(=O)Nc2ccccc2F)c1	-2	0	-0.3	0.63	-3	-3.7	i	-1	-0.6
CCCCNC(=S)N1CCN(C(c2ccccc2)c2ccccc2)CC1	-3	1	0.9	0.72	-2	2.9	i	-14	5.3
Cc1ccc2nc(NC(=O)CN3CCOCC3)sc2c1	.	.	.	0.7	0	-1.5	.	-1	1.3
O=C(c1cccc([N+](=O)[O-])c1)c1ccc2c(c1)C(=O)N(c1c[nH]c(=O)[nH]c1=O)C2=O	.	.	.	0.68	.	.	.	-7	2.3
O=C(CSc1nc2c(cnn2-c2ccc(F)cc2)c(=O)[nH]1)Nc1nccs1	-2	11	-6.0	0.71	-4	0.6	i	-10	2.0
O=C(Nc1cccc(F)c1)Nc1cccc(Cl)c1	-53	-81	-20	0.41*	-1	-1.4	i	-12	2.6
COc1ccc(OC(=O)Nc2ccccc2)cc1	.	.	.	0.67	-1	-0.2	.	6	1.0
COc1ccc2ccccc2c1/C=N/NC(=O)c1ccc(C)nc1	13	13	3.4	.	3	1.4	i	-4	.
COc1ccc(C(=O)N2CCCC(c3cc(C(=O)NCc4ccc(F)cc4)no3)C2)cc1 (stereo unspecified)	-2	-9	-3.8	.	.	1.9	i	.	.
COc1ccc(-c2noc(N3CCC(C(=O)Nc4cccc(OC)c4)CC3)n2)cc1	-12	-28	-11	0.78	6	4.4	i	-11	1.2
COc1cccc(-c2nn(C)c3sc(C(=O)Nc4ccc5c(c4)OCCO5)cc23)c1	.	.	.	0.66	3	3.2	.	.	-6.0
O=C(Cn1nnc(-c2ccccc2)n1)NCc1cccs1	.	.	.	0.7	-3	-3.1	.	-2	3.9
Fc1ccc(-c2nnc3ccc(N4CCc5ccccc5C4)nn23)cc1	-43	-70	7.5	0.75	-4	-4.4	i	0	-15
O=C(Nc1ncc(Cc2ccccc2Cl)s1)c1ccc([N+](=O)[O-])cc1	.	.	.	0.66	6	-0.8	i	.	0.4
COc1ccc(CCn2c(=N)c(C(=O)NCCN3CCOCC3)cc3c(=O)n4cccc(C)c4nc32)cc1OC	6	5	1.1	0.71	18	2.2	i	-2	4.9
COCc1nnc(NC(=O)c2cc(Cl)ccc2OC)s1	.	.	.	0.65	-23	3.0	.	-4	3.7
CC(C)(C)C(=O)N(Cc1ccccc1)c1ccccn1	5	9	-0.5	0.69	5	0.2	i	.	-0.2
Cc1cc(C)cc(N(CC(=O)NC2CC3CCC2C3)S(C)(=O)=O)c1 (stereo unspecified)	.	.	.	0.69	-1	-1.6	.	.	0.2
CC(C)n1nnnc1C1c2ccccc2C(=O)N1CCc1ccc(O)cc1 (stereo unspecified)	4	2	1.8	.	.	2.3	i	.	.

Further records follow:
SMILES	Ecoli rRNA inh	Ecoli rRNA inh OD600	Ecoli rRNA inh RFP	E coli growth	Beta2AR agonist	HNF4A DNA FP	FGF22 binding	ALR H2O2 inh	UCH37 inh
CCOC(=O)c1[nH]c2ccc(OC)cc2c1NC(=O)CCN1CCN(Cc2ccccc2)CC1	.	.	.	0.75	-3	-2.0	.	24	-95
C/C(CCS(=O)(=O)c1ccccc1)=N/O	18	12	0.3	.	3	0.9	i	-2	.
CCc1ccc2nc(NC(=O)CCCc3cccs3)sc2c1	.	.	.	0.73	-2	5.0	.	-17	4.0
O=C(NCc1ccc2c(c1)OCO2)c1ccc(S(=O)(=O)NCC2CCCO2)cc1 (stereo unspecified)	.	.	.	0.76	2	2.2	.	-10	1.3
Cc1ccc(NC(=O)Nc2ccc3c(c2)OCO3)nc1	3	2	-4.1	0.71	-4	-0.4	i	.	3.2
CC(=O)Nc1ccc(NC(=O)C(C)OC(=O)C2CCN(S(=O)(=O)c3ccc4c(c3)OCCO4)CC2)cc1 (stereo unspecified)	7	12	0.6	0.7	1	2.2	i	0	1.0
Cc1ccc(NC(=O)NCCCN2CCOCC2)cc1	.	.	.	0.75	2	-2.9	.	-5	2.4
O=S1(=O)CC(O)C(N2CCC(c3ccccc3)CC2)C1 (stereo unspecified)	.	.	.	0.66	-10	-1.5	.	21	1.5
CN(C)c1ccc(/C=N/Nc2cccc(C(=O)O)c2)cc1	-10	-5	-2.7	.	5	-3.2	i	99*	.
COc1cccc(CNc2nc3cc(-c4ccsc4)sc3c(=O)n2C)c1OC	-8	1	1.9	.	.	2.8	i	.	.
Cc1ccc(-c2nnn(CC(=O)N(Cc3ccccc3)C(C(=O)NC(C)(C)C)c3ccncc3)n2)o1 (stereo unspecified)	14	12	1.1	0.64	16	1.7	i	6	0.9
COCC1CCCN(Cc2nc(-c3ccc4c(c3)OCO4)no2)C1 (stereo unspecified)	-5	-3	1.7	0.71	-1	0.9	i	-2	0.2
CCOc1ccccc1N1CCN(CC(=O)Nc2ccnn2C2CCCC2)CC1	0	-5	0.2	0.7	-5	-2.9	i	.	0.1
CNC(=O)C[C@H]1C(=O)N(CCc2ccccc2)C[C@@H]1C	14	17	1.3	.	.	-0.1	i	.	.
O=C(NC(=S)N(Cc1ccccc1)Cc1ccccc1)c1ccccc1F	.	.	.	0.7	20	6.2	.	-1	7.7
CC(C)CC(=O)Nc1ccc(F)c(Cl)c1	.	.	.	0.68	-1	0.3	.	0	0.3
COCc1ccc(CN2CCCC(C(=O)Nc3ccccc3-c3ccc(OC)cc3)C2)o1 (stereo unspecified)	1	5	-1.4	0.7	4	-0.2	i	-1	-0.6
CCCn1c(SCC(=O)NCc2ccc(C)cc2)n[nH]c1=O	10	5	-5.8	0.72	-3	-2.0	i	-7	1.6
COc1ccccc1CCNC(=O)c1c(N)[nH]c(C(=O)c2ccccc2)c1-c1ccc(Br)cc1	-5	-5	6.6	.	.	2.1	i	.	.
Cc1sc(NC(=O)c2ccccc2)c(C(=O)NCCN(C)C)c1C	.	.	.	0.64	-1	23	.	6	4.1

By substructure: the entries above containing a tert-butyl group.
SMILES	Ecoli rRNA inh	Ecoli rRNA inh OD600	Ecoli rRNA inh RFP	E coli growth	Beta2AR agonist	HNF4A DNA FP	FGF22 binding	ALR H2O2 inh	UCH37 inh
CC(C)(C)C(=O)N(Cc1ccccc1)c1ccccn1	5	9	-0.5	0.69	5	0.2	i	.	-0.2
Cc1ccc(-c2nnn(CC(=O)N(Cc3ccccc3)C(C(=O)NC(C)(C)C)c3ccncc3)n2)o1 (stereo unspecified)	14	12	1.1	0.64	16	1.7	i	6	0.9

Three records picked at random from the list so far, as already listed:
SMILES	Ecoli rRNA inh	Ecoli rRNA inh OD600	Ecoli rRNA inh RFP	E coli growth	Beta2AR agonist	HNF4A DNA FP	FGF22 binding	ALR H2O2 inh	UCH37 inh
O=C(NC(=S)N(Cc1ccccc1)Cc1ccccc1)c1ccccc1F	.	.	.	0.7	20	6.2	.	-1	7.7
Cc1ccc(-c2nnn(CC(=O)N(Cc3ccccc3)C(C(=O)NC(C)(C)C)c3ccncc3)n2)o1 (stereo unspecified)	14	12	1.1	0.64	16	1.7	i	6	0.9
CNC(=O)C[C@H]1C(=O)N(CCc2ccccc2)C[C@@H]1C	14	17	1.3	.	.	-0.1	i	.	.

High-throughput results from PubChem BioAssay.
